Source: PubChem (National Center for Advancing Translational Sciences (NCATS))
StopGo reporter = lowers the luciferase signal of an FMDV 2A StopGo reporter; human cells with a luciferase reporter of 2A StopGo recoding; control for the full effect not named in the record; 1.2% of 410,000 active; AID 1159524; Potency, µM (highest dose often 57.9 µM), without a hit: top-dose signal change, negative = less light; active = well fitted falling curve with a large enough effect; inconclusive = small, poorly fitted or top-dose-only effect; inactive = no such curve, though single readings can be large or run the other way; tested in HEK293T cells; note: % is set by controls: 0 for no effect and ±100 for the full control effect; nearly all actives have a fitted effect of over 45% in size; luciferase light after 4 h
SARS PLpro yeast = inhibitors of SARS-CoV papain-like protease in yeast. S. cerevisiae expressing SARS-CoV PLpro, growth rescue; control for the full effect not named in the record. Potency, µM (series often up to 32.9 µM), inactives show top-dose activity, positive = growth rescue. 0.19% of 330,000 active; note: 0% is about no effect; nearly all actives have a fitted effect of over 55% in size; growth read by luminescence after 48 h
Lassa entry inh = inhibitors of Lassa virus binding or cell entry; Potency, µM (highest dose often 37.9 µM), inactives show at the top dose activity change, negative = inhibition, usual class: inhibitors; 1.2% of 300,000 active; Lassa virus pseudotype entry inhibition, cell reporter; control for the full effect not named in the record; AID 540256; active means well fitted inhibition curve with a large enough effect; inconclusive means small, poorly fitted or top-dose-only effect, or effect the other way; inactive means flat fitted curve, though single readings scatter; tested in HEK293 cells; note: % is set by controls: 0 for no effect and ±100 for the full control effect; nearly all actives have a fitted effect of over 50% in size; luciferase read-out
Cruzain noTriton = blocks cruzain activity in detergent-free assay | P25779 | 2.3% of 200,000 active | Potency, µM, inactives show max response, negative = inhibition, hits mostly inhibitors | purified cruzain, Z-FR-AMC fluorescence, no detergent | AID 1476; active = well fitted curve in the direction sought with a large enough effect; inconclusive = small, poorly fitted or top-dose-only effect, or another doubt; inactive = no such curve, though single readings can be large; an effect the other way counts as inactive or inconclusive;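 note: plate controls were enzyme without inhibitor for no effect and buffer without enzyme for full effect; nearly all actives have a fitted effect of over 40% in size; top concentration of the series not given in the record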
Target sequence (P25779 123-467 limits assumed): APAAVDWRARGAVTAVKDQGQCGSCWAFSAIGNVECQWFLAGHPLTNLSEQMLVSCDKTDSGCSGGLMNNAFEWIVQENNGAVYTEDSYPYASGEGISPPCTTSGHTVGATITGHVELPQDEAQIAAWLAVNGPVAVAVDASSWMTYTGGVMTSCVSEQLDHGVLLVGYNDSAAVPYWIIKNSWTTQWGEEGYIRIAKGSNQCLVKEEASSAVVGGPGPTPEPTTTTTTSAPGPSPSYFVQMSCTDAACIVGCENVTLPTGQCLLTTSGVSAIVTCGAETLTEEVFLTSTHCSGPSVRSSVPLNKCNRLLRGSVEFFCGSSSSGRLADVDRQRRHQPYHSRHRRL
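Detergent-free condition (0.00005% Triton X-100) in acetate buffer pH 5.5 with DTT. 1.5 nM enzyme and compound were pre-mixed 15 min, then 2 uM Z-FR-AMC substrate added; reaction progress from fluorescence change between first and third reads (60 s).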
Cruzain inh Det = blocks cruzain activity in presence of Triton detergent; P25779; purified cruzain, Z-FR-AMC fluorescence, 0.01% Triton; Potency, µM, for the others: max response, negative = inhibition, usual class: inhibitors; 0.43% of 200,000 active; active = well fitted curve in the direction sought with a large enough effect; inconclusive = small, poorly fitted or top-dose-only effect, or another doubt; inactive = no such curve, though single readings can be large; an effect the other way counts as inactive or inconclusive;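 note: plate controls were neutral wells for no effect and buffer without enzyme for full effect; nearly all actives have a fitted effect of over 40% in size; top concentration of the series not given in the record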
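Z-FR-AMC hydrolysis (2 uM substrate) by cruzain (1.5 nM) monitored kinetically at ex 360/em 450 nm after 15 min room-temperature compound exposure; 0.01% Triton X-100, pH 5.5, 5 mM DTT.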
Marburg entry inh = blocks Marburg virus binding to or entry into cells. Marburg virus pseudotyped entry inhibition, cell reporter; control for the full effect not named in the record; about a third of the inactives were read at about 46 µM. Potency, µM (doses to about 37.8 µM), for the others: at the highest dose activity change, negative = inhibition, usual class: inhibitors. 1.8% of 300,000 active; active = well fitted inhibition curve with a large enough effect; inconclusive = small, poorly fitted or top-dose-only effect, or effect the other way; inactive = flat fitted curve, though single readings scatter; tested in HEK293 cells; about a fifth of its hits are not listed in these tables; note: % is set by controls: 0 for no effect and ±100 for the full control effect; luciferase read-out
NS1 function inh = influenza NS1 inhibition | Potency, µM (top dose mostly 46.1 µM), for the others: top-dose activity, positive = more growth | S. cerevisiae slowed by influenza A NS1, growth recovery by OD600 | 0.4% of 270,000 active | AID 2326; note: actives are rising curves; nearly all actives have a fitted effect of over 50% in size
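Growth recovery, yeast-based: influenza A NS1 expressed in S. cerevisiae causes slow growth, and suppressors are detected by OD600. The parent strain without NS1 is used as positive control.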
RE007 growth inh = less growth of the S. pombe RE007 Vpr strain | S. pombe RE007 Vpr strain, BacTiter-Glo ATP luminescence, 24 h; control for the full effect not named in the record | AID 651644 | 0.21% of 360,000 active | Potency, µM (titrated, usually from 92.2 µM), for the others: at the top dose activity change, negative = less growth; active = well fitted falling curve with a large enough effect; inconclusive = small, poorly fitted or top-dose-only effect; inactive = no such curve, though single readings can be large or run the other way;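 note: % is set by controls: 0 for no effect and ±100 for the full control effect; nearly all actives have a fitted effect of over 50% in size; the assay follows cell death caused by Vpr and the record does not say whether a fall means rescue or toxicity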
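Fission yeast strain RE007, carrying one chromosomally integrated HIV-1 vpr copy, was seeded at OD 0.01 in PMG+AL medium with 23 nL pinned compound. After 24 h at 30 °C and 99% humidity, viability was read by BacTiter-Glo luminescence.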
An asterisk follows results filed as active; u = inconclusive; x = no result given; & = joins results of further samples; [ ] = dose if it differs, or a comment. Unless noted, calls come from the whole dose curve; as a rule, active means well fitted rising curve with a large enough effect; inconclusive means small, poorly fitted or top-dose-only effect; inactive means no such curve, though single readings can be large or run the other way. Potency is the fitted concentration of half-maximal effect.

Screens in order – StopGo reporter | SARS PLpro yeast | Lassa entry inh | Cruzain noTriton | Cruzain inh Det | Marburg entry inh | NS1 function inh | RE007 growth inh
COc1ccc(NC(=O)CN(C)C(=O)c2ccc3c(c2)S(=O)(=O)N=C2CCCCCN23)cc1
  -14% | -3% | 14% | x | x | 11% | -7% | -12%
CCNC(=S)N(CCc1c(C)[nH]c2ccccc12)Cc1cc(OC)c(OC)c(OC)c1
  -23% | 2% | u | u | -6.0% | -9% | -14% | 9%
CC(Sc1ccc2c(c1)OCCO2)C(=O)Nc1ccc(N2CCOCC2)cc1 (configuration not stated)
  28% | -1% | -5% | x | x | -1%[46.1 µM] | x | 7%
ON(CCc1ccccn1)Cc1ccccc1
  18% | x | -2%[46.1 µM] | -1% | -0.3% | 28% | -2% | -14%
COc1ccc(N2CCN(c3ncccc3-c3nc(-c4ccccc4C)no3)CC2)cc1
  -9% | x | 1%[46.1 µM] | 7% | -3.0% | -7%[46.1 µM] | x | x
CN(C)c1ccc(/C=C2\SC(=O)N(CCc3nnc(N)s3)C2=O)cc1
  -60% | -2% | x | x | x | 1.1µM* | 7% | -5%
CCOC(=O)c1cc(-c2ccc(C)cc2)n(CCC(=O)Nc2ccc(C(C)C)cc2)c1C
  -23% | x | x | -29% | -2.2% | u | x | x
O=C(NC(=S)NCCN1CCOCC1)c1ccc(F)cc1
  21% | 0% | 12% | 7% | -1.0% | u | 1% | -22%
O=C(NC(Nc1ncc(S(=O)(=O)c2ccc([N+](=O)[O-])cc2)s1)(C(F)(F)F)C(F)(F)F)c1ccc(Cl)cc1
  u | -18% | u | 3% | -8.8% | 3.2µM* | -20% | -10%
Cc1ccc(C(=O)NCc2nc3ccccc3[nH]2)o1
  -5% | -4% | u | x | x | u | 3% | -10%
Cc1ccc(C)c(CN2CCC(n3nccc3NC(=O)C3CCCC3)CC2)c1
  -13% | 1% | -10% | x | x | u | 13% | 10%
O=S(=O)(c1ccc(NC(=S)NCc2cccnc2)cc1)N1CCCCC1
  33%[activator] | -1% | x | x | x | x | -2% | -11%
CC1CCN(C(=O)Cn2cc(SCc3cccc(F)c3)c3ccccc32)CC1
  -15% | x | u | -21% | -8.0% | x | x | x
CCOc1ccc(OCC)c(NC(=O)c2cc3ccccn3n2)c1
  38%[activator] | x | u | 5% | -6.1% | x | x | x
COC(=O)c1cccc(NC(=O)CSc2nnc(COc3ccc(C#N)cc3)n2-c2ccccc2)c1
  -28% | -2% | -28% | 25% | 0.8% | 7%&-39% | -41% | 0%
Cc1ccc(CCNC(=O)CCS(=O)(=O)c2cc3c(cc2Cl)NC(=O)CO3)cc1
  u | x | -2%[46.1 µM] | 4% | -3.7% | x | x | x
O=C1c2ccccc2C(=O)N1CC#CCN1CCN(C(c2ccccc2)c2ccccc2)CC1
  -38% | -18% | u | 5% | 2.3% | -18% | u | -3%
O=C(NCc1cccnc1)C1CCN(Cc2cc3ccccc3n2Cc2ccccc2)CC1
  -29% | x | u | 12% | 0.2% | x | x | x
COc1cc2nc(N(CCCN(C)C)C(=O)c3ccc(S(=O)(=O)N(C)C4CCCCC4)cc3)sc2cc1OC
  -8% | 5% | u | x | x | u | x | -2%
O=C(O)CCCC(=O)Nc1c(F)c(F)c(F)c(F)c1F
  2% | 5% | 0% | 0% | -3.6% | -1% | 5% | 19%

New compounds follow.
Screens in order – StopGo reporter | SARS PLpro yeast | Lassa entry inh | Cruzain noTriton | Cruzain inh Det | Marburg entry inh | NS1 function inh | RE007 growth inh
Cc1ccc(S(=O)(=O)N2c3ccccc3NC(=O)CC2C)cc1 (configuration not stated)
  19% | 4% | 21% | -1% | 5.7% | -2% | 3% | 5%
CN(Cc1ccccc1)C(=O)CN1C(=O)c2ccccc2S1(=O)=O
  32%[activator] | -1% | -8% | x | x | 5%[46.1 µM] | 0% | 11%
CCCc1nn2c(=O)cc(COC(=O)c3ccccc3NC(=O)C3CCCCC3)nc2s1
  -22% | x | 19%[46.1 µM] | -14% | -0.6% | x | x | x
CCOc1ccc(NC(=S)Nc2ccc(F)cc2)cc1
  6% | 0% | x | x | x | x | -3% | -1%
Cc1ccc(S(=O)(=O)N/N=C/c2cc(Br)c(C)o2)cc1
  36%[activator] | -15% | 1% | -2% | -8.0% | 0% | 8% | -24%
O=C(Nc1sc2c(c1C(=O)O)CCCC2)c1ccc(Cl)cc1
  7% | -31% | 7.9µM* | x | x | 6.3µM* | -82% | u
CCC1(CC(C)C)SC(N)=NC1=O (configuration not stated)
  -8% | x | 0% | x | x | 1% | x | 9%
Cn1cccc1C(=O)NC(=O)COC(=O)c1cc(S(=O)(=O)N2CCCCC2)ccc1Cl
  -28% | 0% | 2% | x | x | -7%[46.1 µM] | x | 11%
COc1ccc(S(=O)(=O)N2CCCOC2CNC(=O)C(=O)NCCCN2CCOCC2)cc1C (configuration not stated)
  -3% | -8% | -17% | x | x | -10% | 4% | 5%
CCNC1=C(Cl)C(=O)c2ccccc2C1=O
  -25% | 20% | -14% | -8% | -1.6% | -19% | u | 16µM*
COc1cc(C)ccc1OCCSc1nc2ccc(NC(=O)c3ccc4c(c3)OCO4)cc2s1
  u | x | 4%[46.1 µM] | 6% | -2.9% | 2%[46.1 µM] | x | x
CCOc1ccc(C(=O)Nc2c3c(nn2C(C)(C)C)CSC3)cc1OCC
  -28% | -2% | -10% | 27% | 0.1% | -10% | -6% | -18%
CC(=C1C(=O)c2ccccc2C1=O)N1CCN(c2ccc(F)cc2)CC1
  9% | 1% | x | x | x | x | -3% | 3%
CCOc1ccc(NC(=O)CSc2nnc(C3CC3)n2C2CC2)cc1
  -5% | -1% | 0% | x | x | u | x | 11%
Nc1[nH][nH]c(=O)c1N=Nc1ccccc1
  58%[activator] | x | -2% | x | x | -13% | x | -10%
COc1cc2c(cc1NC(=O)c1ccc(C(C)(C)C)cc1)CCCC2
  -10% | -20% | 1.4µM* | u | -3.4% | 4.5µM* | u | u
CCC(=O)N1CCC(c2ccc(OC)cc2)=N1
  47%[activator] | 1% | 7% | 9% | -3.0% | 14% | -5% | -10%
COc1ccc(NC(=O)CCNS(=O)(=O)c2cc(Br)ccc2Br)cc1S(N)(=O)=O
  61%[activator] | 1% | 2% | x | x | -4%[46.1 µM] | 16% | -2%
Cc1ccc(SCC(=O)OCC(=O)N(C)CC(=O)Nc2ccc(F)cc2)cc1C
  6% | 5% | -1% | x | x | u | x | u
COc1ccccc1OCCn1cc(C(=O)O)c2ccccc21
  25% | -1% | u | x | x | u | 4% | 22%

(cont.)
Screens in order – StopGo reporter | SARS PLpro yeast | Lassa entry inh | Cruzain noTriton | Cruzain inh Det | Marburg entry inh | NS1 function inh | RE007 growth inh
Cc1ccccc1S(=O)(=O)c1cc(C#N)c(=O)[nH]c1N
  -8% | 2% | 7%[46.1 µM] | x | x | 1%[46.1 µM] | x | 2%
CCCc1nnc(NC(=O)CCCN2C(=O)c3ccccc3C2=O)s1
  0% | -1% | 4% | 1% | 2.9% | u | u | 12%
CCCC1(CCC)C(=O)NC(=NCc2ccccc2)NC1=O
  -20% | 1% | 2% | 5% | 2.4% | u | -9% | -9%
CN1C(=O)C(O)N=C(c2ccccc2)c2ccccc21 (configuration not stated)
  6% | -1% | -4%[46.1 µM] | x | x | 6%[46.1 µM] | 1% | 0%
COc1ccc(S(=O)(=O)Nc2ccc(S(=O)(=O)N3CCCCC3)cc2)cc1OC
  104%[activator] | 3% | -4% | -10% | 2.0% | -2% | -17% | 9%
O=C(Cn1cc(SCc2ccc(C(F)(F)F)cc2)c2ccccc21)N1CCCCC1
  0% | x | u | -22% | -8.9% | x | x | x
COc1ccc(Cl)cc1NC(=S)N1CCCCCC1
  -3% | 8% | x | x | x | x | 0% | -16%
CC(C)CN1C(Nc2ccccc2)=NC[C@@H]1C
  2% | -8% | x | x | x | x | -13% | 25%
O=C(CSc1nc2c([nH]c3ccccc32)c(=O)n1-c1ccccc1F)Nc1cccc(Cl)c1
  -19% | x | -24%[46.1 µM] | 13µM* | -0.2% | x | x | x
CCCc1nc2sc(C(=O)OCC)c(N)c2c2c1COC(C)(C)C2
  -14% | 12% | 7% | 8% | u | -2% | -1% | -6%
COc1ccccc1CC(=O)O/N=C(\N)c1cccc([N+](=O)[O-])c1
  17% | -6% | u | 2% | 6.3% | u | -4% | -11%
COc1ccc(CCNC(=O)NCCc2c[nH]c3ccccc23)cc1OC
  -24% | 1% | u | x | x | -6% | 1% | 6%
CCC1CCCCN1S(=O)(=O)c1ccc(NC(=O)c2cccs2)cc1 (configuration not stated)
  -19% | -27% | 5.2µM* | -11% | -7.5% | -2% | 5% | 14%
CCC(=O)Nc1cc(-c2nc3ncccc3o2)ccc1Cl
  4% | 1% | 1%[46.1 µM] | x | x | 2%[46.1 µM] | 1% | -1%
COc1ccc(NC(=O)CCn2cnnn2)cc1
  12% | x | -7%[46.1 µM] | -2% | 2.2% | x | x | x
Cc1ccc(C(=O)Nc2ccon2)cc1S(=O)(=O)N1CCCCCC1
  15% | 10% | 1% | 15% | 1.1% | 8% | 7% | -2%
COc1ccc(N(CC(=O)NCCSCc2ccccc2Cl)S(C)(=O)=O)cc1Cl
  0% | -2% | x | x | x | x | -4% | -7%
O=Cc1ccc(Sc2ncccn2)o1
  -12% | 4% | 1% | x | x | -1%[46.1 µM] | x | -9%

Two records drawn at random from the list so far:
Screens in order – StopGo reporter | SARS PLpro yeast | Lassa entry inh | Cruzain noTriton | Cruzain inh Det | Marburg entry inh | NS1 function inh | RE007 growth inh
COc1ccc(CCNC(=O)NCCc2c[nH]c3ccccc23)cc1OC
  -24% | 1% | u | x | x | -6% | 1% | 6%
CCC(=O)Nc1cc(-c2nc3ncccc3o2)ccc1Cl
  4% | 1% | 1%[46.1 µM] | x | x | 2%[46.1 µM] | 1% | -1%
